MLL AF4-AF9 inh – blocks AF4 peptide binding to human AF9; hit rate 0.47% among 350,000; AID 651704; P42568; inhibition, % at 10 µM; AlphaScreen, biotin-AF4 peptide binding to FLAG-AF9;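 active = every replicate reaching a set inhibition limit, whatever the replicate mean, cut at about 25% in these data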;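 also: 0% = plate neutral control median and 100% = total signal loss; the record names both 10 and 1 µM as test concentration; the first replicate is given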
Target sequence (P42568 whole entry, looked up): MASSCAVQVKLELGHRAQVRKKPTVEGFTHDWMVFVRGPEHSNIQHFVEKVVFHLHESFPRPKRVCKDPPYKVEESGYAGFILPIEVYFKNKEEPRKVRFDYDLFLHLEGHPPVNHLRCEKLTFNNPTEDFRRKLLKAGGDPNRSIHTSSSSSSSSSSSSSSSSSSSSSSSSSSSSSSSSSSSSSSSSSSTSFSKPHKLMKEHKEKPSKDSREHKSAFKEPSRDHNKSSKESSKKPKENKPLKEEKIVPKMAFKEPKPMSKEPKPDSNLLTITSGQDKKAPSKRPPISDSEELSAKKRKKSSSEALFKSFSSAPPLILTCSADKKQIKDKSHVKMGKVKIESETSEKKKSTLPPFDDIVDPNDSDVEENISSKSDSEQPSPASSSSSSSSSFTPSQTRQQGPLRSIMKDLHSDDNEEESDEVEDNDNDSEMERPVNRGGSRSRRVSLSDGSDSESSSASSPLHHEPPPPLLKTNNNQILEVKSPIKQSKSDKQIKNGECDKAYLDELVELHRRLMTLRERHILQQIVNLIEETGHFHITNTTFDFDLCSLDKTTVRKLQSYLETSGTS
rRNA inh HTS – inhibits bacterial ribosomal RNA function over humanized ribosomes; E. coli WT GFP vs humanized-ribosome RFP mutants, fluorescence, 24 h; hits give low values; DMSO median 0, no signal -100; GFP signal change (wild-type ribosome), % (concentration not given with the values); hit rate 1.6% among 350,000; AID 720706;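 active = significant combined selectivity score with lowered wild-type GFP, culture density cut under 30%, mutant RFP and density less affected; inactive = any of these conditions unmet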; also: one replicate is shown; some compounds called inactive have numbers as strong as hits
FGF22 binding – shifts melting point of recombinant human FGF22 | Q9HCT0 | calls only at 9.99 µM | recombinant FGF22 thermal shift, SYPRO orange fluorescence; percent of sucrose octasulfate shift, DMSO zero | hit rate 1.5% among 340,000;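 active = melting point raised past a set limit in the mean and every replicate; three in four hits are not shown here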
Target sequence (Q9HCT0 whole entry, looked up): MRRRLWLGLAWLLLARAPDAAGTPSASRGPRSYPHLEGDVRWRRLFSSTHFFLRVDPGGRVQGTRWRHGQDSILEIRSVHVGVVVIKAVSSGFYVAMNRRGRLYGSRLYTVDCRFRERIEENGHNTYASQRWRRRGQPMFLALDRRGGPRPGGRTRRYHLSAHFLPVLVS
rRNA inh HTS OD600 – recorded beside rRNA inh HTS, whose call it bears; OD600 change, %; measured here: OD600 growth;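 optical density of the mix in the first replicate; 0 = DMSO median and -100 = no signal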
rRNA inh HTS RFP – further read-out of rRNA inh HTS, marked with its call; RFP signal change, %; measured here: RFP humanized mutant strains;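 first replicate; 0 = DMSO median and -100 = no signal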
Numbers without * were called inactive; i = inactive. The list is partial; the hit share may differ from the screen's.

Molecule	MLL AF4-AF9 inh	rRNA inh HTS	rRNA inh HTS OD600	rRNA inh HTS RFP	FGF22 binding
CSCCC(NC(=O)COc1ccccc1)C(=O)N(C)Cc1c(F)cccc1Cl (stereo not given)	-0.8	-14	-51	-4.9	i
C/C=C/c1ccccc1[C@H]1[C@@H](C#N)N(S(=O)(=O)c2cccc(F)c2)[C@H]1CO	1.0	-1	-29	-8.6	i
CCc1cccc(CC)c1NC(=O)c1ccc(-c2cc(Cl)ccc2Cl)o1	-0.1	17	31	1.9	i
COc1ccc(-c2cnc3c(c2)C(=O)N([C@H](C)CO)C[C@@H](C)[C@H](CN(C)Cc2ccc(C(=O)O)cc2)O3)cc1	-1.6	0	15	-1.5	i
CC(C)(C)c1ccc(S(=O)(=O)NC(=O)C2(C)CCN2C(=O)Cc2ccc(-c3ccccc3)cc2)cc1 (stereo not given)	0.1	-11	-14	3.3	i
Cc1ccc(C)c(N2CCN(C(=O)CCc3nc(-c4cccc(C(F)(F)F)c4)no3)CC2)c1	-1.8	-3	0	1.1	i
C[C@@H]1CN([C@@H](C)CO)C(=O)c2cc(-c3ccccc3F)cnc2O[C@H]1CN(C)Cc1ccccc1F	9.2	-3	-3	5.9	i
Cc1noc(C)c1S(=O)(=O)N(C)C[C@@H]1OCCCC[C@@H](C)Oc2ccc(NC(=O)NC3CCCCC3)cc2C(=O)N([C@@H](C)CO)C[C@@H]1C	-1.3	1	5	-0.6	i
COc1ccccc1NC(=O)N[C@@H]1CC[C@@H](CCNC(=O)Cc2ccccn2)O[C@H]1CO	-0.6	-3	-4	1.2	i
Cc1ccccc1S(=O)(=O)N1CC[C@H]2[C@H](CO)Nc3ccc(-c4ccccc4)cc3[C@H]21	0.6	-4	-33	27	i
Cc1cccc(NC(=O)c2cc(S(=O)(=O)N3CCCCC3)ccc2Cl)n1	2.4	-2	4	6.3	i
C[C@@H]1CN([C@@H](C)CO)C(=O)Cc2cc(NC(=O)CCC(F)(F)F)ccc2O[C@H]1CN(C)S(=O)(=O)c1cccs1	-1.3	-7	-4	-1.2	i

Sorted by SMILES length (smallest number first): some entries from above.
Molecule	MLL AF4-AF9 inh	rRNA inh HTS	rRNA inh HTS OD600	rRNA inh HTS RFP	FGF22 binding
CCc1cccc(CC)c1NC(=O)c1ccc(-c2cc(Cl)ccc2Cl)o1	-0.1	17	31	1.9	i
CSCCC(NC(=O)COc1ccccc1)C(=O)N(C)Cc1c(F)cccc1Cl (stereo not given)	-0.8	-14	-51	-4.9	i
C/C=C/c1ccccc1[C@H]1[C@@H](C#N)N(S(=O)(=O)c2cccc(F)c2)[C@H]1CO	1.0	-1	-29	-8.6	i
Cc1ccccc1S(=O)(=O)N1CC[C@H]2[C@H](CO)Nc3ccc(-c4ccccc4)cc3[C@H]21	0.6	-4	-33	27	i
CC(C)(C)c1ccc(S(=O)(=O)NC(=O)C2(C)CCN2C(=O)Cc2ccc(-c3ccccc3)cc2)cc1 (stereo not given)	0.1	-11	-14	3.3	i
C[C@@H]1CN([C@@H](C)CO)C(=O)Cc2cc(NC(=O)CCC(F)(F)F)ccc2O[C@H]1CN(C)S(=O)(=O)c1cccs1	-1.3	-7	-4	-1.2	i

Later entries.
Molecule	MLL AF4-AF9 inh	rRNA inh HTS	rRNA inh HTS OD600	rRNA inh HTS RFP	FGF22 binding
Cc1noc(C)c1S(=O)(=O)Nc1ccc2c(c1)CC(=O)N([C@@H](C)CO)C[C@@H](C)[C@H](CN(C)C(=O)NC(C)C)O2	0.8	2	3	-2.0	i
C[C@H]1CN([C@@H](C)CO)C(=O)c2cc(C#CC3(O)CCCC3)cnc2O[C@@H]1CN(C)C(=O)C1CCOCC1	-4.5	0	5	-2.0	i
CC(C)C#Cc1ccc2c(c1)O[C@@H](CN(C)S(C)(=O)=O)[C@H](C)CN([C@H](C)CO)S2(=O)=O	1.6	-6	-16	-2.1	i
CCCN1CCC(C(=O)NC(c2ccc(Cl)cc2)c2ccsc2)CC1 (stereo not given)	-8.2	6	18	3.6	i
C[C@@H]1CN([C@@H](C)CO)C(=O)c2cc(C#CC(C)(C)O)cnc2O[C@@H]1CN(C)C(=O)C1CC1	-4.1	9	2	-3.5	i
N#C[C@@H]1[C@H](c2ccc(C3=CCCC3)cc2)[C@H](CO)N1C(=O)Nc1ccccc1F	-1.8	1	-3	-0.5	i
COc1ccc(-c2noc(CCC(=O)N3CCN(c4ccc(C(F)(F)F)cc4)CC3)n2)cc1	-2.1	-5	2	-1.2	i
CC(C)COC(=O)N(C)C[C@@H]1OCc2ccccc2-c2ccccc2C(=O)N([C@@H](C)CO)C[C@H]1C	-1.1	1	0	-0.2	i
COc1ccc(C#Cc2cnc3c(c2)C(=O)N([C@H](C)CO)C[C@H](C)[C@H](CN(C)Cc2cccc(C)c2)O3)cc1OC	11	-4	-5	14	i
CCc1nc2c(OCc3ccc(F)c(F)c3)cccn2c1N(C)C(=O)c1ccc(OC)cc1	0.9	-17	-52	-2.6	i
CO[C@H]1CN(C)C(=O)c2cc(NC(C)=O)ccc2OC[C@H](C)NC[C@@H]1C	-0.8	1	1	-0.5	i
CCS(=O)(=O)N1CC2(C1)[C@H](c1ccccc1)[C@H](CO)N2Cc1ccccn1	-0.2	1	-18	-0.5	i
C[C@H]1CN([C@@H](C)CO)C(=O)c2cccc(NC(=O)C3CCCCC3)c2O[C@H]1CN(C)C(=O)Nc1ccc2c(c1)OCO2	0.8	0	3	0.7	i
Cc1noc(C)c1S(=O)(=O)Nc1ccc2c(c1)C(=O)N([C@H](C)CO)C[C@@H](C)[C@@H](CN(C)CC1CCCCC1)OCCCC[C@H](C)O2	4.3	-2	-6	-1.6	i
C[C@H]1CN([C@@H](C)CO)C(=O)Cc2cc(NC(=O)c3ccncc3)ccc2O[C@@H]1CN(C)C(=O)Nc1ccc(F)cc1	-2.5	1	2	-4.5	i
COc1ccc(-c2ccc([C@@H]3[C@H](C#N)N[C@H]3CO)cc2)cc1	-1.6	3	10	-1.0	i
Cc1noc(C)c1S(=O)(=O)N(C)C[C@@H]1OCCCC[C@@H](C)Oc2ccc(NC(=O)Nc3ccc(C(F)(F)F)cc3)cc2C(=O)N([C@@H](C)CO)C[C@@H]1C	1.2	-1	3	1.5	i
C[C@@H]1CN([C@H](C)CO)C(=O)c2cc(NC(=O)Nc3ccc4c(c3)OCO4)ccc2O[C@@H]1CN(C)S(=O)(=O)c1cccs1	1.7	-3	-10	1.8	i
CC(=O)N(C)C[C@H]1Oc2ncc(C#C[C@@H](C)O)cc2C(=O)N([C@H](C)CO)C[C@@H]1C	-7.1	9	14	-1.8	i
CN1c2ccc(Br)cc2[C@H]2[C@H](CCN2C(=O)CN2CCOCC2)[C@H]1CO	0.3	2	12	1.0	i
COc1ccccc1CNC(=O)C[C@H]1CC[C@@H]2[C@H](COC[C@@H](O)CN2C(=O)Nc2ccc(C(F)(F)F)cc2)O1	-1.1	-54	-77	-17	i
CO[C@H]1CN(C)C(=O)c2ccc(NS(=O)(=O)c3ccccc3F)cc2OC[C@@H](C)NC[C@H]1C	-2.6	0	2	-0.8	i
COC(=O)C1CN(Cc2ccccc2)C(=O)C1=O (stereo not given)	1.0	1	10	2.9	i
Cn1c(O)c(N=NC(=O)Cc2c[nH]c3ccccc23)c2ccccc21	0.1	-14	-25	-7.0	i
O=C1C(Cl)=C(NCc2ccco2)C(=O)c2ccccc21	1.8	-40	-52	-6.6	i
CCC(=O)NC1=C(Cl)C(=O)C(NC(=O)CC)=C(Cl)C1=O	-4.2	-9	7	0.9	i
CN1C(=O)c2cc(NC(=O)C3CCC3)ccc2OC[C@H]2O[C@@H](CC(=O)NCCc3ccncc3)CC[C@@H]21	-2.0	-1	-1	-4.0	i
O=S(=O)(c1ccc(F)cc1)N1CC[C@@H]2[C@H]1c1cc(Br)ccc1N[C@@H]2CO	-0.9	-9	-37	-6.2	i
CC1(C(=O)NS(=O)(=O)C2CC2)CCCN(C(=O)COCc2ccccc2)C1 (stereo not given)	0.5	3	17	0.9	i
CN1c2ccc(-c3ccccc3)cc2[C@@H]2[C@@H](CCN2C(=O)c2ccc3c(c2)OCO3)[C@H]1CO	-1.4	-2	-4	0.1	i
COc1ccccc1S(=O)(=O)N[C@H]1CC[C@@H](CCNC(=O)C2CC2)O[C@H]1CO	-0.3	1	11	0.9	i
Cc1ccc2c(Cl)cc(Cl)c(O)c2n1	-3.8	-61	-74	-23	i
O=C(NCCCN1CCOCC1)[C@H]1[C@H](CO)[C@H]2Cn3c(ccc(C4=CCCCC4)c3=O)[C@@H]1N2	2.1	1	5	0.8	i
O=C(C[C@@H]1C[C@H]2c3cc(NC(=O)NC4CCCCC4)ccc3O[C@H]2[C@H](CO)O1)NCc1cccnc1	3.0	1	2	-3.0	i
COc1ccc(CN(C)C[C@H]2Oc3c(NS(=O)(=O)c4ccccc4)cccc3C(=O)N([C@H](C)CO)C[C@H]2C)cc1	-0.8	0	3	-2.3	i
CC(=O)N(C)C[C@H]1Oc2cc(C#CC3CCCC3)ccc2S(=O)(=O)N([C@@H](C)CO)C[C@H]1C	0.9	-1	2	-0.1	i
CCC(=O)N1[C@H](CO)[C@H](c2ccccc2)[C@@H]1CN(C(C)C)S(C)(=O)=O	-1.0	1	-7	-4.3	i
Cc1cn([C@H]2C[C@H](O)[C@@H](CNC(=O)CNC(=O)CN)O2)c(=O)[nH]c1=O	-1.9	2	2	-2.0	i
CCCNC(=O)N(C)C[C@@H]1Oc2ncc(C#Cc3ccccc3F)cc2C(=O)N([C@H](C)CO)C[C@H]1C	-0.5	-4	4	3.4	i
Cc1cc(C)cc(CC(=O)N2CCC2(C)C(=O)NS(=O)(=O)c2ccc(Br)cc2)c1 (stereo not given)	-4.1	-3	4	2.6	i
COCC#Cc1ccc([C@@H]2[C@H](C#N)N(C(=O)c3cccnc3)[C@H]2CO)cc1	-1.2	2	9	-5.6	i
CC(C)(C)OC(=O)N1C(=O)[C@](OC(=O)c2ccccc2)(c2ccc(F)cc2)c2ccccc21	-1.5	-26	-46	-13	i
C[C@@H]1CN([C@@H](C)CO)C(=O)c2cc(C#Cc3cccnc3)cnc2O[C@H]1CN(C)C(=O)CC1CC1	-17	6	6	-2.6	i
CN1c2ccc(C#Cc3cccnc3)cc2[C@H]2[C@H](CCN2S(=O)(=O)c2cccc(F)c2)[C@H]1CO	-0.3	-1	6	5.5	i
CCC1(CC)C(=O)NC(=S)N=C1N	1.4	3	9	-0.6	i
COc1ccc(NC(=O)N(C)C[C@H]2OCCCC[C@H](C)Oc3ccc(NS(=O)(=O)c4ccc(Cl)cc4)cc3C(=O)N([C@H](C)CO)C[C@@H]2C)cc1	3.1	-3	3	0.2	i
COCc1cn(CC[C@H]2CC[C@H](NC(=O)Nc3ccc4c(c3)OCO4)[C@H](CO)O2)nn1	-1.1	3	7	0.8	i
O=S(=O)(c1cccs1)N1CCCCN2[C@H](C1)[C@H](c1ccc(-c3ccccc3)cc1)[C@@H]2CO	-6.6	5	4	1.8	i
CC=Cc1ccc2n(c1=O)C[C@H]1[C@H](CO)[C@@H](C(=O)NCC(F)(F)F)N(CCC)[C@@H]21 (mixture of isomers)	-2.1	0	-4	-4.5	i
COc1ccccc1C#Cc1ccc([C@H]2[C@H]3CN(S(C)(=O)=O)CCCCN3[C@H]2CO)cc1	16	2	3	4.1	i
O=C(CCN1CCCCC1)N[C@H]1CC[C@@H](CCn2cc(-c3cccc(F)c3)nn2)O[C@H]1CO	0.6	-5	-7	-1.1	i
Cc1noc(C)c1S(=O)(=O)N(C)C[C@@H]1Oc2c(NS(=O)(=O)c3cn(C)cn3)cccc2C(=O)N([C@@H](C)CO)C[C@H]1C	-0.2	2	8	-0.1	i
CO[C@@H](CN(C)Cc1nccs1)[C@H](C)CN([C@@H](C)CO)S(=O)(=O)c1ccc(C)cc1	-1.7	-4	0	-4.6	i
COCC(=O)N(C)C[C@@H]1Oc2ncc(Br)cc2C(=O)N([C@H](C)CO)C[C@H]1C	-1.0	3	12	-1.2	i
Cc1ccc(S(=O)(=O)Nc2ccc3c(c2)CC(=O)N([C@@H](C)CO)C[C@H](C)[C@@H](CN(C)C(=O)NC2CCCCC2)O3)cc1	-2.2	1	7	0.0	i
CCC(=O)Nc1ccc2c(c1)C(=O)N(C)C[C@@H](OC)[C@H](C)CN(C(=O)c1ccccn1)[C@@H](C)CO2	-0.6	6	6	1.4	i
CCC(=O)N1[C@H](CO)[C@H]2c3ccccc3N(C(=O)Nc3ccc(Cl)cc3)C[C@H]21	-1.0	-15	-14	-2.8	i
CC(C)NC(=O)N(C)C[C@@H]1Oc2ncc(C#CC3(O)CCCC3)cc2C(=O)N([C@@H](C)CO)C[C@H]1C	-0.7	0	1	1.0	i
